From PubChem
UUG fidelity: yeast start codon fidelity modulation; 0.13% of 350,000 active; activity score, % at 18.7 µM; S. cerevisiae UUG-firefly luciferase reporter, luminescence/redox ratio; AID 602363;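 active means replicate mean at a twofold rise or more, about +100% in these data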;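 further: firefly luciferase made from a UUG start codon reports start codon fidelity; reporter light over untreated wells divided by growth signal over untreated wells; some hits fall short of that in this replicate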
Rce1 inhib: yeast Ras-converting enzyme inhibition; Q03530; yeast membranes, quenched prenylated peptide cleavage fluorescence; calls only; 0.27% of 290,000 active; AID 2563;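 active means fall in fluorescence gain of 50% or more versus controls, with final raw signal at or below 3038400; inconclusive means same 50% fall but final raw signal above 3038400; inactive means fall in fluorescence gain under 50%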;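 further: plate controls were neutral control wells for no effect and wells lacking membranes for full effect; tested at 10 µM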
Target sequence (Q03530 whole entry, looked up): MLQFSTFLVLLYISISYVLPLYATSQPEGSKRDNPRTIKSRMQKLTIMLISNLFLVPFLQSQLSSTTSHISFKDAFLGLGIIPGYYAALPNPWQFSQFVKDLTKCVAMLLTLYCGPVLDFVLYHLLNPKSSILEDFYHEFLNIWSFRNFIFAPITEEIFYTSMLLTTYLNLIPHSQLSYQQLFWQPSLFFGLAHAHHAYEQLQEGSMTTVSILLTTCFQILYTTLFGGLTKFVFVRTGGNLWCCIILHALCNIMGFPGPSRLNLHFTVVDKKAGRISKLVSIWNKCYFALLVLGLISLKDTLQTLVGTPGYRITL
PABP FP inh: PABP-poly(A) binding inhibition; 1% of 290,000 active; PABP-poly(A) RNA binding, fluorescence polarization; P11940; inhibition, % at 35 µM; AID 2014;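 active means 50% or more with normal probe brightness, or confirmed in later tests; inconclusive means above 50% with abnormal brightness, or retests that disagree; inactive means below 50% or failed in later tests; about a fifth of its hits are not listed in these tables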;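 further: calls also rest on retests at 20 µM and on dose response follow-up; controls were probe without protein and protein plus probe with vehicle; some compounds called inactive have numbers as strong as hits; many hits fall short of the cut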
eIF4H inh: inhibitors of RNA binding by human eIF4H; Q15056; eIF4H fluorescence polarization binding assay; inhibition, % at 35 µM; 0.94% of 290,000 active;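 active means 50% or more with normal probe brightness, or confirmed in later tests; inconclusive means above 50% with abnormal brightness, or retests that disagree; inactive means below 50% or failed in later tests; about a fifth of its hits are not listed in these tables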;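 further: calls also rest on retests at 20 µM and on dose response follow-up; 0% = protein and probe with vehicle and 100% = probe without protein; strong numbers were not always called active; many hits fall short of the cut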
HIV Env fusion: inhibitors of HIV Env-mediated cell fusion. HeLa-JRFL Env/CEM21 cell fusion, luciferase. inhibition, % at 12.3 µM. 1.1% of 360,000 active. AID 651610;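 active means mean replicate inhibition score of at least 50 and every replicate individually at or above 50; inconclusive means only one of the two criteria met; inactive means mean below 50 and not all replicates reaching 50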;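 further: 0% = plate neutral controls and 100% = maraviroc near 300 nM; one replicate is shown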
MT1-MMP act inh: inhibitors of human MT1-MMP activation; GFP/RFP ratio change, % at 20 µM; P50281; 0.061% of 360,000 active; HT1080 RFP-PRO-GFP cells, GFP/RFP ratio fluorescence, overnight; percent of plate control window, DMSO zero;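 active means GFP/RFP ratio change of at least 30% with cell ATP level not reduced by more than half and red fluorescence within 50% of control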; further: strong numbers were not always called active
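Compound: 20 µM single dose, 1% DMSO / System: HT1080 RFP-PRO-GFP cells / Controls: DMSO and RFP-L50D-GFP cell wells / Read-out basis: GFP/RFP fluorescence ratio / Schedule: overnight compound exposure at 37 °C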
CSC inhib: blocks cancer stem cells | cancer stem cell-like cells viability, luminescence | inhibition, % at 7.5 µM | 1.1% of 300,000 active | AID 2717;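 active means mean at 75% or more and at least half the replicates too; inconclusive means mean and replicates disagree; tested in HMLE shEcad cells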;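 further: 0% = median of negative and 100% = median of positive control wells; the first replicate is given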
eIF4H inh retest: also measured in eIF4H inh; calls as there; inhibition, %; compound at 20 µM; confirmation average;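 mean of two retest wells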
PABP FP inh retest: second read-out of PABP FP inh, no call of its own (marks repeat the call); inhibition, %; compound at 20 µM; confirmation repeats;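 mean of two retest wells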
MT1-MMP act inh RFP: further read-out of MT1-MMP act inh, marked with its call; RFP signal change, %; measured here: RFP expression control read;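 0 = vehicle wells; hits needed this value within 50% of zero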
Numbers without * were called inactive; i = inactive; ? = inconclusive; / = not tested or not shown.

SMILES	UUG fidelity	Rce1 inhib	PABP FP inh	eIF4H inh	HIV Env fusion	MT1-MMP act inh	MT1-MMP act inh RFP	CSC inhib	others
O=C(Nc1cccnc1)c1ccc(F)cc1	-2	i	-4	-5	-26	1	-1	-14
O=C(N/N=C/c1ccccc1OC(=O)c1ccc2c(c1)OCO2)c1ccccc1	/	i	0	5	1	4	5	9
Cc1cc(C(=O)OCC(=O)NC(C)c2ccccc2)c(C)o1 (stereo not drawn)	/	i	21	1	-1	-1	0	2
O=C(CNC(=S)N(Cc1ccccc1F)C1CCCCC1)NCCN1CCOCC1	-59	i	-7	1	8	0	3	8
Cc1cc(-c2ccccc2)[nH]c(=O)c1S(=O)(=O)c1ccccc1	-9	i	2	0	-12	0	-1	-8
Cc1ccc(-c2nnc(NC(=O)C3=COCCO3)o2)c(C)c1	/	i	/	/	-6	/	/	7
CCC(CC)C(=O)NCCc1cc2c(C)ccc(C)c2[nH]c1=O	11	i	4	-2	18	2	4	-7
Cc1cc(=O)c2ccc3ccccc3c2[nH]1	-13	i	-9	-9	7	-4	-1	-15
COc1ccc(C(=O)NNC(=S)Nc2ccccc2)cc1	/	i	0	6	-297	2	8	-15
O=C(NC1(C(F)(F)F)C(=O)Nc2c1c(=O)[nH]c(=O)n2Cc1ccco1)C1CCCCC1 (stereo not drawn)	-8	i	12	-4	/	3	1	4
CCC(Oc1ccccc1)C(=O)Nc1ccccc1C(=O)N1CCCCC1 (stereo not drawn)	10	i	9	2	35	-2	-1	-5
Cc1cc([N+](=O)[O-])ccc1NCc1ccco1	/	i	1	-16	5	-1	-3	-10
CCc1nc2oc3ccccc3c(=O)c2c(=O)n1Cc1ccc(OC)cc1	13	i	-2	6	-41	5	3	-8
COc1ncc(-c2ccc3c(c2)S(=O)(=O)c2cccc(C(=O)NCc4ccco4)c2C3=O)cn1	-12	/	/	/	-5	1	9	-6
CC12CCC(C(=O)N(c3ccccn3)c3ccccn3)(OC1=O)C2(C)C (stereo not drawn)	-5	i	-6	0	/	0	4	-9
CC(=O)Nc1cc(Cl)ccc1OS(=O)(=O)c1ccc(C)cc1	-10	i	2	6	25	5	0	2
Cc1cc(N(C)Cc2ccccc2)nc(-c2ccccc2)n1	-16	i	6	5	-16	-3	-14	47
CC(C)(C)c1ccc(CC(=O)N2CCC2(C)C(=O)NS(=O)(=O)c2cccc(C#N)c2)cc1 (stereo not drawn)	-8	/	/	/	18	3	5	/
O=C(CSc1nc2ccccc2c(=O)[nH]1)Nc1ccc([N+](=O)[O-])cc1	-6	/	/	/	/	-6	-17	-9
Cc1cc(C)cc(NC(=O)CCc2nc3sc4c(c3c(=O)[nH]2)CCCC4)c1	-13	i	/	/	/	-3	0	89*

Structural class: the entries above containing four or more nitrogen atoms.
SMILES	UUG fidelity	Rce1 inhib	PABP FP inh	eIF4H inh	HIV Env fusion	MT1-MMP act inh	MT1-MMP act inh RFP	CSC inhib	others
O=C(CNC(=S)N(Cc1ccccc1F)C1CCCCC1)NCCN1CCOCC1	-59	i	-7	1	8	0	3	8
O=C(NC1(C(F)(F)F)C(=O)Nc2c1c(=O)[nH]c(=O)n2Cc1ccco1)C1CCCCC1 (stereo not drawn)	-8	i	12	-4	/	3	1	4
O=C(CSc1nc2ccccc2c(=O)[nH]1)Nc1ccc([N+](=O)[O-])cc1	-6	/	/	/	/	-6	-17	-9

Back to the main list, starting 2 compounds before the break.
SMILES	UUG fidelity	Rce1 inhib	PABP FP inh	eIF4H inh	HIV Env fusion	MT1-MMP act inh	MT1-MMP act inh RFP	CSC inhib	others
O=C(CSc1nc2ccccc2c(=O)[nH]1)Nc1ccc([N+](=O)[O-])cc1	-6	/	/	/	/	-6	-17	-9
Cc1cc(C)cc(NC(=O)CCc2nc3sc4c(c3c(=O)[nH]2)CCCC4)c1	-13	i	/	/	/	-3	0	89*
CCOC(=O)c1cc(NC(=O)CNCC(c2ccccc2)N(C)C)cc(C(=O)OCC)c1 (stereo not drawn)	-13	i	9	-3	1	-7	-3	16
CCn1c(COc2ccccc2C)nnc1SCC(=O)N1CCC(C)CC1	-1	i	10	13	-49	4	-4	/
CCOC(=O)C1CCCN(C(=O)c2ccc3c(c2)N(C)C(=O)/C(=C/c2ccccc2Cl)S3)C1 (stereo not drawn)	-18	i	-11	1	39	-1	-22	-13
O=C(O)COc1ccc(/C=C/c2nc(-c3ccccc3O)n[nH]2)cc1	-12	i	14	4	-20	-3	-2	/
Cc1cccc(C)c1NC(=O)N1CCN(C2CCCCC2)CC1	-26	i	25	-5	/	1	6	-15
CCc1ccc(-c2nnn(Cc3nc4ccccc4s3)n2)cc1	-18	i	-5	-13	-3	1	-2	-3
Cc1ccccc1Oc1ncnc2sccc12	-10	i	-5	-2	-61	-3	-1	-7
Oc1ccc(N=Nc2n[nH]c(-c3ccccc3)n2)cc1	-21	i	-2	-18	-166	4	-3	-2
COc1cccc(-c2nc(CS(=O)CC(=O)NC3CCCC3)c(C)o2)c1 (stereo not drawn)	-9	i	0	8	25	2	3	/
COC(=O)C1C(=O)C2=C(CC1C)NC(=O)CC2c1cccc(C)c1 (stereo not drawn)	/	i	-5	-9	/	-1	0	101*
COc1ccc(/C=C(\NC(=O)c2ccccc2)C(=O)NNC(=O)CCN2CCOCC2)cc1	/	i	7	0	-58	4	4	-10
O=C(Nc1ccccc1)N(c1ccccc1)C1C=CS(=O)(=O)C1 (stereo not drawn)	-9	i	6	-6	-1	5	4	-17
COc1ccc(NC(=O)Nc2ccc(Cc3ccncc3)cc2)cc1OC	-4	i	2	-5	10	-24	-16	2
CN1C(=O)CC(N2CCN(c3ccc(Cl)c(Cl)c3)CC2)C1=O (stereo not drawn)	-6	i	-5	-4	40	-1	-1	-13
CC(=O)Nc1ccc(NC(=O)COc2ncnc3ccccc23)cc1	/	i	-8	1	3	-1	2	-6
Nc1c(Cl)cc(NC(=O)c2ccccc2C(=O)O)cc1Br	16	i	1	-4	8	0	1	-15
Cc1cc(NC(=O)CS(=O)(=O)c2cn(Cc3cccc(C(F)(F)F)c3)c3ccccc23)no1	1	/	/	/	78*	-5	-21	/
Cc1ccc(C)c(S(=O)(=O)N2CCCC2CNC(=O)C(=O)NCc2ccccn2)c1 (stereo not drawn)	/	i	/	/	/	4	-2	13
CCCN(CC(=O)Nc1ccc(OC)c(OC)c1)CC(=O)Nc1ccc(F)c(F)c1F	/	i	22	-2	7	2	4	-5
Cc1ccc(N=C2NC(=O)/C(=C/c3cccn3C)S2)cc1	-2	i	-6	-1	-29	-46	-10	59
COc1cccc(Oc2nc(N)ncc2[N+](=O)[O-])c1	/	i	7	13	18	0	0	7
CCOC(=O)CN1C(=O)C(Sc2n[nH]c(-c3ccccc3)n2)CCc2ccccc21 (stereo not drawn)	2	i	4	-6	/	-1	-11	27
Cc1ccc(C)c(NC2=CC(=O)CC(C)(C)C2)c1C#N	-12	i	-1	-12	/	3	4	-6
COC(=O)Cn1c(=O)c2c(n(Cc3ccccc3)c1=O)N/C(=C/c1ccc(Br)cc1)C2=O	/	i	-5	-2	0	-14	15	29
O=C(Nc1cccc(Cl)c1)Nc1nc(-c2ccc(Cl)cc2)cs1	/	i	-7	-5	/	-13	-15	-14
COc1ccc(Cn2c(=O)oc3ccc(C)cc32)cc1OC	-16	i	-2	2	23	4	-15	13
O=[N+]([O-])c1ccc(CNc2cccc(F)c2)s1	-18	i	6	-4	-1	4	-1	1
COC(=O)[C@@]12CCCCN1[C@H](c1ccc(SC3CCCCC3)cc1)[C@H]1C(=O)N(C)C(=O)[C@H]12	-8	i	/	/	48	-2	-6	25
Cc1ccc(NC(=O)Cn2c(=O)n(Cc3ccco3)c(=N)c3c4c(sc32)COC(C)(C)C4)cc1	-16	i	-9	-10	/	-3	-5	2
O=C(CN1C(=O)S/C(=C/c2cccs2)C1=O)N1CCCC1	-11	/	/	/	/	-2	-1	-10
Cc1c(NC(=O)Nc2ccc([N+](=O)[O-])cc2)c(=O)n(-c2ccccc2)n1C	-9	i	8	90	16	0	0	-5	eIF4H inh retest=3;PABP FP inh retest=-1
O=C(NCc1ccco1)c1nc2nc(-c3cccs3)cc(C(F)(F)F)n2n1	-6	i	30	21	-36	2	1	15
Cc1ccc(C(=O)NC(=O)OCCn2c(C)cnc2[N+](=O)[O-])cc1	/	i	-5	0	1	/	/	-14
CN1CCN(S(=O)(=O)c2cc(C(F)(F)F)ccc2Cl)CC1	-6	i	-8	-9	8	0	-3	1
CC(=O)c1ccc(NC(=O)CC2Nc3cccc4cccc(c34)NC2=O)cc1 (stereo not drawn)	/	i	?	?	10	2	-2	-10
COC(=O)C1=NN(c2cccc3ccccc23)C2C(=O)N(c3ccccc3OC)C(=O)C12 (stereo not drawn)	-1	i	0	3	12	-1	3	-5
CC1CCCCC1NC(=S)Nc1ccc(Cl)cc1Cl (stereo not drawn)	/	i	-11	2	11	-1	-3	14
Cc1[nH]c2ccccc2c1C(c1ccncc1)N1CCC(C)CC1 (stereo not drawn)	/	i	99	2	11	1	4	-30	eIF4H inh retest=-2;PABP FP inh retest=1
Nc1nc(SCC(=O)Nc2cc(-c3ccccc3)nn2-c2ccccc2)n[nH]1	-7	i	-5	5	/	-5	-4	-3
COc1ccc(OCC(=O)N(Cc2ccc(C)o2)C2CCS(=O)(=O)C2)cc1 (stereo not drawn)	-18	i	2	4	7	3	3	-2
O=c1cc(N2CCOCC2)c2ccccc2o1	14	i	-3	-8	/	1	-4	-5
C=CCOn1c(=O)c(-c2ccc(OC)c(OC)c2)[n+]([O-])c2ccccc21	-8	i	34	19	-167	3	4	3
Cc1onc(-c2ccccc2)c1C(=O)OCC(=O)c1ccc[nH]1	-10	/	/	/	8	-4	-3	/
CC(=O)CSc1ncnc2sc3c(c12)CCCC3	/	i	-5	0	-81	0	-2	-4
Cc1cccc(NC(=O)C2CCN(S(=O)(=O)c3c(C)noc3/C=C/c3ccco3)CC2)n1	/	i	-3	5	6	-16	-23	2
CCOc1ccc2ccccc2c1CNc1nnnn1CC	-5	i	5	1	13	-2	1	3
COc1ccc(NC(=O)C2CCCN(CCCc3ccccc3)C2)cc1OCC(C)C (stereo not drawn)	0	i	-15	-20	37	-3	-12	0
CNC(=O)CN(c1ccc(OC)cc1)S(=O)(=O)c1ccc(F)cc1	-24	i	-3	0	-14	1	5	-9
C[C@@H]1[C@H](O)C[C@@]23COC(=O)C2=CCCC3[C@@]1(C)CCC1COC(=O)C1 (stereo partly drawn)	-8	/	/	/	/	5	4	-3
C=CCn1c(C)cc(C(=O)CSc2nc3ccccc3o2)c1C	-64	i	79*	70*	-52	0	-14	-11
C/C(=N/Nc1ccnc2cc(Cl)ccc12)c1ccc(O)cc1	-16	i	/	/	-18	5	0	34
CC(C)c1ccc(/C=C2\Oc3c(ccc(O)c3CN3CCN(C)CC3)C2=O)cc1	/	i	-1	?	-6	-13	-3	19
O=C(NNC(=O)c1ccccc1-n1cccc1)c1ccc(Cl)cc1Cl	1	i	3	-1	/	0	-3	-5
O=C(NCCN1CCOCC1)c1ccc(Cl)c(S(=O)(=O)N2CCOCC2)c1	-3	i	2	4	-10	4	4	0
CCc1ccccc1NCC(=O)Nc1ccc(Cl)c(C(F)(F)F)c1	-6	i	14	-6	/	-1	-8	/
CC1(C(=O)NCc2cccc3ccccc23)CCN1C(=O)Cc1ccc(-c2ccccc2)cc1 (stereo not drawn)	-10	/	/	/	41	0	-8	/
COCCN=C1Sc2nc3ccc(C)cc3cc2CN1Cc1cccs1	/	i	1	4	-19	-2	-5	-3
COc1ccc(S(=O)(=O)N(C)CC(=O)Nc2ccccc2SC)cc1Cl	-4	i	-5	2	/	2	0	-10
